Screens deposited in PubChem BioAssay by several laboratories.
AF4-AF9 inh: MLL-AF4/AF9 protein interaction inhibition | AID 651704 | P42568 | AlphaScreen, biotin-AF4 peptide binding to FLAG-AF9 | 350,000 tested, 0.47% active | inhibition, % at 10 µM;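 active means every replicate reaching a set inhibition limit, whatever the replicate mean, cut at about 25% in these data; inconclusive means mean inhibition reaches that limit but some replicates miss it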;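 further: 0% = plate neutral control median and 100% = total signal loss; the record names both 10 and 1 µM as test concentration; the first replicate is given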
Target sequence (P42568 whole entry, looked up): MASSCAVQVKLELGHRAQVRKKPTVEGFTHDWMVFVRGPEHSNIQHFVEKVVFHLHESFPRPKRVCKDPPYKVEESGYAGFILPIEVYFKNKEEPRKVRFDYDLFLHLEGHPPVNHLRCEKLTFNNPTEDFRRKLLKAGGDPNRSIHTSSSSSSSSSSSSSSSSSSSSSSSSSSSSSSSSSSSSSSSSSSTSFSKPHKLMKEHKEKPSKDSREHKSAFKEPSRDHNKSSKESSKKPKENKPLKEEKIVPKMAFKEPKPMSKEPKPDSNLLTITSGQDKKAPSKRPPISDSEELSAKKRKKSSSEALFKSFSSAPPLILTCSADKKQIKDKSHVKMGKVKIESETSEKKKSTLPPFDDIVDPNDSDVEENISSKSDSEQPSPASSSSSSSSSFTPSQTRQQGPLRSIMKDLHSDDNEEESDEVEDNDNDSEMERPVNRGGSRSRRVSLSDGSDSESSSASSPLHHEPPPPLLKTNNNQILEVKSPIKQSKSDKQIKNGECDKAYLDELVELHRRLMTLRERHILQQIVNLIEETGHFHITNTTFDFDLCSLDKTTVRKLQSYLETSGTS
UCH37 DUB inh: human UCH37 deubiquitinating enzyme inhibition | 330,000 tested, 0.33% active | purified proteasome/UCH37, Ub-AMC cleavage fluorescence | inhibition, % (concentration not given with the values);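 active means mean of two replicates above 20%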;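 further: 0% = compound-free wells with enzyme and 100% = wells lacking proteasome; stock transfer was 100 nL into about 20 µL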
Target sequence (Q9Y5K5 whole entry, looked up): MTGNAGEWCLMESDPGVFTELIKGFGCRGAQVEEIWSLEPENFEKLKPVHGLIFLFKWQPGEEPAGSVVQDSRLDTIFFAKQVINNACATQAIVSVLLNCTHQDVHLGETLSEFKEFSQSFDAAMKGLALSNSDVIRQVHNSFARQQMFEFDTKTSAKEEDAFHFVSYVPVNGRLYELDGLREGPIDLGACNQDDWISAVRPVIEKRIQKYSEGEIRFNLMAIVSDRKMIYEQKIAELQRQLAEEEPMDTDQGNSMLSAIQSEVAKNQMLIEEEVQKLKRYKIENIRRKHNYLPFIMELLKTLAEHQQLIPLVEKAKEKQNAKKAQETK
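Material: Human UCH37 enzyme supplied as purified proteasome complex | Schedule: 30 min preincubation with enzyme, 25 min cleavage at room temperature | Detection: AMC fluorescence 355/460 nm | Measure: % inhibition of Ub-AMC cleavage fluorescence | Controls: Wells without proteasome as full block, compound-free enzyme plus substrate as uninhibited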
Bfl-1 A1 inh: inhibitors of the anti-apoptotic protein A1, read as caspase activation; MEF A1-2A-BIM cells, Caspase-Glo 3/7 luminescence, 3 h; percent of clofoctol response, vehicle zero; caspase activation, % (test concentration not listed); 330,000 tested, 0.066% active;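 active means over half of replicate activation scores above 10%, or exactly half above 10 with the replicate mean above 10; inconclusive means replicate mean below 10 yet half the replicates above 10; inactive means over half of replicates below 10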;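 further: wells of about 30 µL received 50 nL stock; many hits fall short of the cut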
FGF22 binding: FGF22 (human) thermal shift binding; Q9HCT0; 340,000 tested, 1.5% active; AID 651658; calls only at 9.99 µM; recombinant FGF22 thermal shift, SYPRO orange fluorescence; percent of sucrose octasulfate shift, DMSO zero;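 active means melting point raised past a set limit in the mean and every replicate; inconclusive means no clear call; three in four hits are not shown here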
Target sequence (Q9HCT0 whole entry, looked up): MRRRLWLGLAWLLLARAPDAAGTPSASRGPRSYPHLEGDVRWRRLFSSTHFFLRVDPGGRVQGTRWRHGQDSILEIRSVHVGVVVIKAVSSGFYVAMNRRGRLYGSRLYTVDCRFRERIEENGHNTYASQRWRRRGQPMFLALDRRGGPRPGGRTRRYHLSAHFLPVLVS
Beta apoptosis: blocks beta cell apoptosis; INS-1E cytokine-induced death, ATP luminescence, 48 h; percent of positive-control rescue, neutral wells zero; protection from apoptosis, % (concentration not given with the values); 300,000 tested, 0.8% active;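 active means all replicates at 75% or more, or half of them and the mean; inconclusive means half reach 75% but not the mean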;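 further: 0% = cytokine-treated negative control wells and 100% = positive control rescue; higher means more ATP so stronger rescue from cytokine killing; wells of about 40 µL received 100 nL stock; the first replicate is given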
T cruzi repl: T. cruzi replication inhibition | T. cruzi beta-gal in NIH3T3, luminescence, 90 h | inhibition, % (concentration not given with the values) | 300,000 tested, 1.4% active;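 active means mean inhibition across valid replicates above about 55%, limit read from the data; inconclusive means mean below that limit but half or more replicates reach it; inactive means mean below it, under half of replicates reach it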;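 further: signal also drops with host cell toxicity which is not excluded here; 0% = plate median of DMSO wells and 100% = zero luminescence signal; higher percent means less beta-gal luminescence so fewer parasites; stock transfer was 50 nL into about 50 µL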
rRNA inh HTS: inhibits bacterial ribosomal RNA function over humanized ribosomes; 350,000 tested, 1.6% active; AID 720706; E. coli WT GFP vs humanized-ribosome RFP mutants, fluorescence, 24 h; stronger effect = lower value; DMSO median 0, no signal -100; GFP signal change (wild-type ribosome), % (test concentration not listed);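 active means significant combined selectivity score with lowered wild-type GFP, culture density cut under 30%, mutant RFP and density less affected; inactive means any of these conditions unmet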; further: one replicate is shown; some compounds called inactive have numbers as strong as hits
Ecoli growth: inhibitors of Escherichia coli growth; 330,000 tested, 0.21% active; AID 1053175; OD600 absorbance (concentration not given with the values); OD600, 23 h; stronger effect = lower value;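 active means OD600 absorbance below the run mean of sample wells minus 3.6 SD, in any replicate, cut at about 0.56 in these data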;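 further: stock transfer was 300 nL into about 60 µL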
rRNA inh HTS OD600: second read-out of rRNA inh HTS, no call of its own (marks repeat the call); OD600 change, %; measured here: OD600 growth;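 optical density of the mix in the first replicate; 0 = DMSO median and -100 = no signal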
rRNA inh HTS RFP: recorded beside rRNA inh HTS, whose call it bears; RFP signal change, %; measured here: RFP humanized mutant strains;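 first replicate; 0 = DMSO median and -100 = no signal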
An asterisk follows results filed as active; i = inactive; ? = inconclusive; / = no result given; & = joins results of further samples. Some of the compounds tested; rates above refer to the full screens.

SMILES	AF4-AF9 inh	UCH37 DUB inh	Bfl-1 A1 inh	FGF22 binding	Beta apoptosis	T cruzi repl	rRNA inh HTS	rRNA inh HTS OD600	rRNA inh HTS RFP	Ecoli growth
Cc1cccc(NC(=O)Nc2ccc3c(c2)CCC3)c1	-0.5	1.5	-3.9	i	3	17	5	7	-3.4	0.7
CCc1ccc(-c2nn(-c3ccccc3)cc2C2SCC(=O)N2Cc2ccco2)cc1 (stereo not given)	/	0.6	-0.8	/	-4	45	/	/	/	0.64
C=C(C)C1CC=C(C)/C(=N\NC(=O)CCc2ccccc2)C1 (stereo not given)	5.1	/	0.4	i	-7	0	/	/	/	/
COc1ccc(Nc2cc(C)nc3ccccc23)cc1	1.8	8.7	-0.3	i	12	-14	28	6	-10	0.59
COc1ccc(CN2CCN(Cc3ccon3)CC2CCO)c(C)c1C (stereo not given)	1.8	0.9	-0.3	i	-9	3	8	5	-2.4	0.71
COCCNC(=O)CCCN1C(=O)c2ccccc2Sc2ncccc21	-3.9	1.2	0.6	i	-10	-5	-32	-46	-4.0	0.69
CCOc1cc(CN2CCN(c3ccc(C(C)=O)cc3)CC2)ccc1OC	/	2.6	0.4	/	1	11	/	/	/	0.63
CCOc1ccc(OCC)c(S(=O)(=O)N2CCC(C)CC2)c1	-34	1.1	0.8	i	-3	26	/	/	/	0.67
Cc1cccc(NC(=O)CCNS(=O)(=O)c2cccc3nsnc23)c1C	1.8	3.6	0.0	i	-7	0	2	-17	15	0.69
C=CCn1c(SCC(=O)Nc2nnc(CC)s2)nnc1-c1ccco1	/	5.4	-0.2	/	5	-2	/	/	/	0.7
Cc1ccc(NC(=O)c2cccc3c2C(=O)N(C2CCCCC2)C3)c(C)c1	/	-4.8	?	/	-3	2	/	/	/	0.68
CC1CCCC(C)N1/N=C/c1ccccc1OC(F)F (stereo not given)	-1.7	/	0.7	i	-2	5	20	15	-2.8	/
C=CCN1C(=O)/C(=C/c2ccc(OC(C)=O)c(OCC)c2[N+](=O)[O-])SC1=S	2.4	42*	/	i	/	7	-34	-46	-6.2	0.69
CCOC(=O)Nc1ccc2c(c1)N(C(=O)N(CC)CC)c1ccccc1CC2	/	-2.0	0.2	/	-3	9	/	/	/	0.7
FC(F)(F)c1ccccc1C1=CC(c2ccccc2)n2ncnc2N1 (stereo not given)	-4.2	-38	0.7	i	-3	4	-10	-10	-6.8	0.7
CCc1cccc2c(C(=O)C(NCCOC)c3ccccc3)c[nH]c12 (stereo not given)	5.6	-0.6	1.3	i	/	-9	-9	-52	32	0.65
CN(C(=O)CSc1nnnn1-c1ccc(O)cc1)C1CCCCC1	1.5	3.0	-0.8	i	1	/	-9	-21	-1.2	0.67
CCOc1ccccc1OCC(=O)Nc1ccc(S(=O)(=O)N(C)C)cc1	/	4.5	0.6	/	-2	1	/	/	/	0.68
O=C(CNC(=O)c1ccc(Br)o1)NCc1ccc(Cl)cc1	0.1	-1.1	0.0	i	5	-3	0	4	2.6	0.67
O=C(NC(=S)Nc1nc(-c2ccccc2)cs1)c1cncc(Br)c1	0.8	7.0	0.7	i	/	1	-5	1	6.1	0.77
COC(=O)CSc1nc(N2CCOCC2)c2c(c1C#N)CCCC2	0.0	-1.6	0.2	i	8	6	-28	-50	-6.9	0.68
COc1ccc(Nc2nc3ccccc3n3cnnc23)cc1Cl	1.8	-32	-1.3	i	1	-1	16	8	2.1	0.7
COC(C[C@@H](O)C[C@@H](O)[C@H](C)OCc1ccccc1)OC	-1.2	-0.4	-0.7	i	0	5	2	1	17	/
Cc1ccccc1Nc1nnc(SCC(=O)N(C)C2CCS(=O)(=O)C2)s1 (stereo not given)	/	0.6	0.2	/	-4	-5	/	/	/	0.7
CCN(CC)C(=O)COc1ccc(/C=N/NC(=O)c2cc(-c3ccccc3OC)nc3ccccc23)cc1OC	1.9	/	-0.1	i	3	-2	0	5	1.2	/
CCNc1nc(NCC)nc(N(C)n2cnnc2)n1	/	3.6	?	/	-5	-19	/	/	/	0.68
COc1ccc(/C(C)=N/NC(=O)CNC(=O)c2ccco2)c(OC)c1	-3.3	/	1.4	i	-9	-8	0	5	-2.4	/
COCCN(C(=O)Nc1ccc(OC)cc1)c1nc2ccccc2s1	-4.4	1.7	-0.7	i	6	10	2	7	-1.1	0.69
O=C(Cn1cnc2cc([N+](=O)[O-])ccc2c1=O)N1CCN(S(=O)(=O)c2ccccc2)CC1	-0.7	-0.6	1.0	i	-15	/	-11	5	-3.4	0.68
CN1C(=O)C(C)(C)c2cc(S(=O)(=O)N3CCCCCC3)ccc21	-3.5	3.3	0.2	i	3	14	-6	-2	-7.8	0.71
COCCOC(=O)c1c(NC(=O)CN2c3ccccc3CC2C)sc(C(N)=O)c1C (stereo not given)	-4.7	0.0	0.1	i	12	11	-8	-2	19	0.71
COc1ccc(/C=C/c2ccc3ccccc3[n+]2C)cc1OC	/	4.9	-0.2	/	8	8	/	/	/	0.67
CCCN(CCC)C(=O)c1cc2c(=O)n3cccc(C)c3nc2s1	2.7	-382	0.2	i	6	7	-30	-28	2.0	0.7
Cc1ccc(Oc2ccc(C(F)(F)F)cc2[N+](=O)[O-])c([N+](=O)[O-])n1	-1.5	4.6	0.1	i	-1	35	0	5	1.6	0.7
COC(=O)c1cc(OC)c(OC)cc1NC(=O)c1ccc(OC)cc1	/	-14	-0.1	/	8	10	/	/	/	0.79
C[C@H]1CN([C@@H](C)CO)C(=O)Cc2cc(NC(=O)CCC(F)(F)F)ccc2O[C@H]1CN(C)S(C)(=O)=O	-2.9&0.1	4.7	0.6	i	1	/	4&-4	5&-11	-2.1&-9.4	/
Cc1ccc2oc(=O)cc(/C=C/c3ccccc3)c2c1	/	-6.3	1.6	/	3	-1	/	/	/	0.65
NNC(=O)C(Cc1ccccc1)NC(=O)OCc1ccccc1 (stereo not given)	-0.1	0.2	0.8	i	-1	1	3	-16	-2.5	0.67
O=c1c(C=NCCCn2ccnc2)c(-c2ccccc2)[nH]n1-c1nc2ccccc2s1	/	5.3	-0.6	/	-7	-8	/	/	/	0.7
CCOC(=O)C1=C(COC(=O)/C=C/c2ccccc2)NC(=O)NC1C (stereo not given)	-0.6	/	0.3	i	1	-10	21	13	3.0	/
CC(=O)NC1=NN(C(C)=O)C(C)(c2ccc(C)cc2)S1 (stereo not given)	0.9	4.5	-0.1	i	-11	-2	7	15	-2.2	/
Fc1cccc(Nc2cc(-n3cccn3)ncn2)c1	/	-2.9	-2.0	/	3	-23	/	/	/	0.67
CC(C)(CO)NCc1cc(Br)ccc1OCc1ccccc1	/	1.1	-0.1	/	-2	-8	/	/	/	0.67
CCOC(=O)c1[nH]c2ccc(OC)cc2c1NC(=O)c1ccccc1C(=O)O	0.2	-12	0.3	i	3	15	-2	-2	1.6	0.69
CC(=O)NC(Cc1ccccc1)C(=O)NC1CCN(C(=O)c2cnccn2)CC1 (stereo not given)	/	0.8	1.2	/	-5	-15	/	/	/	0.7
Cn1c2ccccc2c(=O)c2c(=O)n(-c3ccccc3)c(-c3ccc(C(C)(C)C)cc3)nc21	-1.4	6.1	2.0	i	8	36	2	1	0.2	0.66
Cc1nn(C)c(C)c1/C=N/NC(=O)C(C)(C)Oc1ccc(Cl)cc1	-25	/	-0.3	i	-7	1	7	-11	-8.1	/
Clc1ccc(-c2nc(-c3ccccn3)no2)cc1Cl	/	-0.1	-5.7	/	6	-17	/	/	/	0.7
Cc1cc(C)c(S(=O)(=O)NCC(=O)O)cc1C	/	0.9	-0.5	/	-2	-7	/	/	/	0.72
Cc1csc(NC(=O)CCC(=O)N(CC(=O)NC2CCCC2)c2ccccc2)n1	1.0	1.9	0.4	i	-4	-17	5	9	1.3	0.68
COc1cc(C(=O)NCC(c2cccs2)N2CCOCC2)cc(Br)c1OCc1ccccc1 (stereo not given)	5.9	1.6	-0.5	i	20	/	1	-10	8.7	0.68
CCOC(=O)CSc1n[nH]c(NC(=O)c2ccc(F)cc2)n1	/	2.6	-2.2	/	-4	-20	/	/	/	0.71
O=C(NCCCN1CCCC1=O)c1cc2ccccc2o1	-2.9	0.7	/	i	/	/	1	6	-0.5	0.61
Cc1ccc(NC(=S)N(CCCN(C)C)Cc2cc3cc4c(cc3[nH]c2=O)OCO4)cc1	1.2	-37	1.0	i	-7	-18	7	7	-1.0	0.67
COc1ccc(/C=C(\NC(=O)c2ccccc2)C(=O)NCc2ccco2)cc1OC	2.6	7.7	-1.0	i	-4	-5	8	5	1.6	0.68
CCN(C(=O)c1ccc2c(c1)OCO2)C12CC3CC(CC(C3)C1)C2	0.9	2.1	0.9	i	0	/	7	5	-1.4	0.7
Cc1ccc(S(=O)(=O)N2CCCN(C)CC2)cc1	-3.6	1.5	0.5	i	-4	1	4	2	4.0	0.7
COc1ccc(C(=O)N2CCN(S(=O)(=O)c3ccc(Br)cc3)CC2)cc1	-2.3	5.3	0.3	i	-5	/	-10	-13	-1.9	0.67
O=C(Cn1cnc2sc(-c3ccccc3)cc2c1=O)N1CCOCC1	/	-3.4	0.6	/	0	-5	/	/	/	0.7
CC(C(=O)OCC(=O)c1cccc([N+](=O)[O-])c1)N1C(=O)C2C3CCC(C3)C2C1=O (stereo not given)	-0.6	3.7	0.9	i	-8	-20	13	16	1.6	0.68
Cc1ccc(S(=O)(=O)NC[C@H]2O[C@@H](n3cnc4c(N)ncnc43)[C@H](O)[C@@H]2O)s1	0.6	2.7	-0.1	i	-5	/	12	6	3.7	0.68
Cc1cccc(NC(=S)NCc2cccs2)c1	-0.3	0.4	-0.7	i	-2	6	4	-7	-1.2	0.68
O=C(COC(=O)c1ccc(Cl)c(S(=O)(=O)NCc2ccccc2)c1)NCC1CCCO1 (stereo not given)	-0.4	3.0	0.6	i	-1	4	-1	-10	1.6	0.72

Some of the entries so far, with values under each structure.
Every second line gives: AF4-AF9 inh | UCH37 DUB inh | Bfl-1 A1 inh | FGF22 binding | Beta apoptosis | T cruzi repl | rRNA inh HTS | rRNA inh HTS OD600 | rRNA inh HTS RFP | Ecoli growth
> CCOC(=O)CSc1n[nH]c(NC(=O)c2ccc(F)cc2)n1
→ / | 2.6 | -2.2 | / | -4 | -20 | / | / | / | 0.71
> Clc1ccc(-c2nc(-c3ccccn3)no2)cc1Cl
→ / | -0.1 | -5.7 | / | 6 | -17 | / | / | / | 0.7
> COc1cc(C(=O)NCC(c2cccs2)N2CCOCC2)cc(Br)c1OCc1ccccc1 (stereo not given)
→ 5.9 | 1.6 | -0.5 | i | 20 | / | 1 | -10 | 8.7 | 0.68
> O=C(NCCCN1CCCC1=O)c1cc2ccccc2o1
→ -2.9 | 0.7 | / | i | / | / | 1 | 6 | -0.5 | 0.61
